Screens as filed in PubChem.
Beta cell apopt – beta cell apoptosis inhibition | INS-1E cytokine-induced death, ATP luminescence, 48 h; percent of positive-control rescue, neutral wells zero | 300,000 tested, 0.8% active | AID 435005 | protection from apoptosis, % (no concentration beside the values);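 active means all replicates at 75% or more, or half of them and the mean; inconclusive means half reach 75% but not the mean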;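 further: 0% = cytokine-treated negative control wells and 100% = positive control rescue; higher means more ATP so stronger rescue from cytokine killing; wells of about 40 µL received 100 nL stock; the first replicate is given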
LANA-H2B inh – blocks KSHV LANA binding to histone H2A/H2B; inhibition, % (concentration not given with the values); 320,000 tested, 0.6% active; cell-free LANA-H2A/H2B peptide, fluorescence polarization; AID 2629; in the data active means inhibition mostly above about 10%, no sharp cut-off; inactive means mostly below about 6.7%;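 further: stock transfer was 7.5 nL into about 10 µL; 0% = median of vehicle wells and 100% = median of positive control wells; one replicate is shown; the record names a cut of 25% in any replicate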
Target sequence (Q9QR71 whole entry, looked up): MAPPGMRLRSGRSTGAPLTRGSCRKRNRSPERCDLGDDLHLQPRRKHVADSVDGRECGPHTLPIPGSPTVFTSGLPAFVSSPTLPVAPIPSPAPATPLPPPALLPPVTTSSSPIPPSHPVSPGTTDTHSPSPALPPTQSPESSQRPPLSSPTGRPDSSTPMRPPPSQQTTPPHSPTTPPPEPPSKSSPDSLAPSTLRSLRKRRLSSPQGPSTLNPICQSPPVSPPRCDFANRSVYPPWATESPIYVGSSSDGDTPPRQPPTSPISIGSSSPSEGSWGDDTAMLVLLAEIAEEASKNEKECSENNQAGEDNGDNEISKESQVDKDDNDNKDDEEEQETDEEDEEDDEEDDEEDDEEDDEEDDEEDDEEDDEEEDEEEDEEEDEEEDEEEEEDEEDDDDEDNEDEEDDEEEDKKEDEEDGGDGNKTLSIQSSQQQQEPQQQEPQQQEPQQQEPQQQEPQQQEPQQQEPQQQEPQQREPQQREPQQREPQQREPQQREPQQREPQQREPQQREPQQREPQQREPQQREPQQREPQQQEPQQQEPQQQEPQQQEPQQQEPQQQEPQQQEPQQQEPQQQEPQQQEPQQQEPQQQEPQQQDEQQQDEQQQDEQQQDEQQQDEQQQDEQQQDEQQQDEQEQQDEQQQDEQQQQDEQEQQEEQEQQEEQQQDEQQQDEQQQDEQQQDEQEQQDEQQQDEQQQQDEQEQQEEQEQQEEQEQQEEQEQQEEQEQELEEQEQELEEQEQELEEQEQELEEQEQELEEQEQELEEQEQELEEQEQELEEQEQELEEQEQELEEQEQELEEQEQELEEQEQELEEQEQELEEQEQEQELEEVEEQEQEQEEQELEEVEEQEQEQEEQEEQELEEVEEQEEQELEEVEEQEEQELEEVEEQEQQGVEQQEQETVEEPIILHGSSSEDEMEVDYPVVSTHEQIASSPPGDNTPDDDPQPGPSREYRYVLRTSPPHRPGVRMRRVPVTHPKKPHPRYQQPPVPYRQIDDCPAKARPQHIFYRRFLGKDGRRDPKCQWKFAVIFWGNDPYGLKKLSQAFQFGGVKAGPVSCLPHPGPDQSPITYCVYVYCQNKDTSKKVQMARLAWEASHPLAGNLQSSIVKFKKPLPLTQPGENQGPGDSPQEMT
RanGTP-Imp inh – disruptors of Ran-importin-beta complex formation – biochemical, FRET, CFP-Ran, YFP-importin-beta, homogeneous, primary screen; cell-free CFP-Ran/YFP-importin-beta FRET ratio; inhibition, % (concentration not given with the values); 300,000 tested, 1.1% active; AID 2216;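 active means most replicates above 15%; inconclusive means exactly half above 15%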;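 further: 0% = DMSO wells and 100% = Ran loaded with GDP instead of GTP; wells of about 40 µL received 100 nL stock; the first replicate is given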
MLL AF4-AF9 inh – MLL-AF4/AF9 protein interaction inhibition; 350,000 tested, 0.47% active; AlphaScreen, biotin-AF4 peptide binding to FLAG-AF9; P42568; inhibition, % at 10 µM;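 active means every replicate reaching a set inhibition limit, whatever the replicate mean, cut at about 25% in these data; inconclusive means mean inhibition reaches that limit but some replicates miss it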;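 further: 0% = plate neutral control median and 100% = total signal loss; the record names both 10 and 1 µM as test concentration; the first replicate is given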
T cruzi inh – T. cruzi replication inhibition; T. cruzi beta-gal in NIH3T3, luminescence, 90 h; 300,000 tested, 1.4% active; inhibition, % (test concentration not listed);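 active means mean inhibition across valid replicates above about 55%, limit read from the data; inconclusive means mean below that limit but half or more replicates reach it; inactive means mean below it, under half of replicates reach it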;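 further: signal also drops with host cell toxicity which is not excluded here; 0% = plate median of DMSO wells and 100% = zero luminescence signal; higher percent means less beta-gal luminescence so fewer parasites; stock transfer was 50 nL into about 50 µL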
Vif TR-FRET – inhibitors of Vif binding to APOBEC3G peptide, primary screen, biochemical, TR-FRET, GST-Vif 1-94, biotin-A3G peptide, dose response retest (AID 1117319); TR-FRET GST-Vif / biotin-A3G peptide binding; higher % means a stronger effect; test concentration not given here; strong numbers were not always called active; inhibition, %; hits with a dose series show IC50 in µM; 260,000 tested, 0.57% active;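 active means above the screen mean plus three standard deviations and confirmed in dose response; inconclusive means results disagree or hit not tested in dose response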;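 further: Vif residues 1-94 fused to GST binding biotinylated APOBEC3G peptide 110-148; 0% = full assay without inhibitor and 100% = GST in place of GST-Vif; retest series ran down from 100 µM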
Bfl-1 A1 inh – inhibitors of the anti-apoptotic protein A1, read as caspase activation. MEF A1-2A-BIM cells, Caspase-Glo 3/7 luminescence, 3 h; percent of clofoctol response, vehicle zero. caspase activation, % (no concentration beside the values). 330,000 tested, 0.066% active. AID 2462;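 active means over half of replicate activation scores above 10%, or exactly half above 10 with the replicate mean above 10; inconclusive means replicate mean below 10 yet half the replicates above 10; inactive means over half of replicates below 10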;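 further: wells of about 30 µL received 50 nL stock; many hits fall short of the cut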
Calb FLC – C. albicans growth modulation with fluconazole | C. albicans CaCi-2 (fluconazole-resistant clinical isolate) + fluconazole, Alamar Blue growth, 48 h | growth inhibition, % (concentration not given with the values) | 300,000 tested, 0.57% active;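 active means most replicates above 75%; inconclusive means exactly half above 75%; inactive means most below 75%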;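 further: all wells also contain fluconazole at 8 µg/ml as a sub-toxic cotreatment; 0% = median of DMSO wells and 100% = median of geldanamycin control wells; wells of about 8 µL received 7.5 nL stock; the first replicate is given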
* hit, by the source's call; ? = inconclusive; · = not tested or not shown; & = joins results of further samples.

SMILES	Beta cell apopt	LANA-H2B inh	RanGTP-Imp inh	MLL AF4-AF9 inh	T cruzi inh	Vif TR-FRET	Bfl-1 A1 inh	Calb FLC
Cc1ccc(S(=O)(=O)CCC(=O)OCC(=O)NC(C)c2ccc(F)cc2)cc1 (stereo not given)	2	3.9	·	-1.6	·	4%	0.4	·
COc1cccc(CNC(=O)N[C@@H](C)C(=O)O)c1	-8	2.6	-1.5	1.0	10	3%	0.2	5
O=C(c1cc2ccccc2oc1=O)N(Cc1cccs1)Cc1cccs1	-3	2.7	-4.0	·	18	6%	-0.4	-2
COc1ccc(C(=O)/C=C/c2cccs2)c(OC(=O)c2cccc([N+](=O)[O-])c2)c1	5	-2.1	-1.8	·	11	4%	-1.5	-4
CC(NC(=O)C1CSC2(C)CCC(=O)N12)c1ccccc1Cl (stereo not given)	-3	3.1	0.0	-17	-16	-2%	0.4	-4
Nc1nc(SCC(=O)N2CCCC2)[nH]c(=O)c1NC(=O)c1cccs1	0	0.5	-1.8	?	-9	-7%	1.0	-7
O=S1(=O)CC(O)C(Nc2ccc(Cl)cc2)C1 (stereo not given)	2	-0.7	4.3	·	-34	-5%	0.0	4
O=C(c1ccco1)N1CCN(Cc2c(Cl)cccc2Cl)CC1	-1	-1.7	0.3	-7.3	7	·	2.1	-4
COc1ccc(-n2cnnc2SCC(=O)Nc2cc(C)on2)cc1	-2	1.1	-0.8	-2.9	-31	11%	0.5	3
O=C(Nc1cccc2ncccc12)c1cccnc1	-7	3.4	-6.4	·	-7	-2%	-0.9	-8
CCOC(=O)CN1C(=O)N[C@@H](c2ccco2)C(C(C)=O)=C1C	7	-0.6	-5.8	-5.9	-1	·	0.7	-5
O=C(O)c1cccc([N+](=O)[O-])c1C(=O)Nc1ccc2ccccc2c1	2	-7.1	7.0	3.6	-1	5%	1.1	2
O=C(Nc1cccc(C(F)(F)F)c1)c1cc[n+]([O-])cc1	4	-9.1	1.0	2.4	-17	·	-0.4	-4
Cc1cccc(N=Nc2cn[nH]c2-c2ccco2)c1	-1	2.7	-0.6	3.0	2	-7%	0.3	25
COc1ccc(CNC(=S)Nc2cccc(F)c2)cc1	1	-0.4	4.2	-2.1	-13	·	-0.7	-4
O=S(=O)(Nc1ccc(Cl)c(C(F)(F)F)c1)c1cnc[nH]1	-2	-4.2	1.1	·	-2	8%	-0.1	4
Cc1cc(Cl)c(OCCCn2cncn2)c(Br)c1	-1	1.9	-0.3	·	-5	-1%	-0.4	-3
O=C1c2ccccc2-c2c1cccc2C(=O)N1CCN(C(=O)c2ccco2)CC1	-6	2.3	1.1	·	6	19%	-0.8	5
C=CCn1c(=N)n(CC(=O)c2cccc([N+](=O)[O-])c2)c2ccccc21	-7	0.6	1.6	5.4	12	31%	0.4	72
CN(CCOc1ccc(Cl)cc1)CC(=O)Nc1ccc(OC(F)(F)F)cc1	-1	-0.7	0.8	0.9	10	2%	-0.3	-16
CCOC(=O)c1sc(Nc2nc3cc4c(cc3s2)OCO4)cc1C	-14	1.7	13	·	15	22%	-1.0	32
C=CCOC(=O)C1=C[C@H](c2cn(C(C)=O)c3ccccc23)C[C@H](OCc2ccc(CO)cc2)O1	1	1.9	1.0	-0.8&3.1	-4	-1%	-0.3	-3
O=C(CCc1nc2ccccc2[nH]1)NC1CCCCC1	-7	2.2	-0.7	-0.6	-7	25%	-0.5	-3
Cc1cc(C)c(S(=O)(=O)N/N=C/c2ccc3c(c2)OCO3)c(C)c1	-31	-0.6	0.1	-1.3	-3	-3%	1.0	16
C/C=C\C(=O)Nc1cccc(C2=NOC3(C2)C[C@@H](C(N)=O)N(C(=O)C2(C)CC2)C3)c1 (stereo not given in full)	-4	-2.3	-2.9	-0.4	-28	-5%	0.0	-1
CC(C)c1ccc(/C=N/Nc2ccc(C(=O)O)cc2)cc1	5	1.3	2.0	-5.9	27	·	-8.9	?
COc1cc(NC(=O)COC(C)=O)cc(OC)c1OC	0	-0.2	3.3	-1.6	-19	9%	-0.7	-27
N#Cc1ccc(COC(=O)c2ccc3c(c2)OCO3)cc1	-6	-3.2	0.8	-1.4	-7	2%	-0.8	-5
Cc1csc2ncc(C(=O)NCc3ccccn3)c(=O)n12	·	-2.5	-3.3	2.5	-11	12%	1.0	-12
CN1CCN(S(=O)(=O)c2ccc(NC(=S)NC(=O)c3ccccc3)cc2)CC1	8	-3.5	-1.5	·	2	0%	-0.5	-8
O=C(CNC(=O)C1CCCCC1)OCn1nnc2ccccc2c1=O	4	15*	-0.9	-1.6	-13	-2%	0.4	23
O=C(CCC(=O)Nc1ccc(Cl)cc1)N/N=C/c1ccc2c(c1)OCO2	-7	5.3	-2.4	-0.2	-7	-5%	-0.2	1
Cc1[nH]nc(N2CCCCC2)c1[N+](=O)[O-]	1	-7.6	-2.7	·	-4	-1%	0.4	2
C/C(CC(=O)NC1CCCCC1)=N\NC(=O)c1ccccc1C	-4	-0.6	-1.3	-3.5	-5	·	0.3	-2
CCCn1nc(NC(=O)c2cccs2)c2cc3cc(OC)ccc3nc21	21	-2.2	106*	·	34	1%	-0.5	-2
O=C1N(Cc2cccc(Cl)c2)C[C@@H]2C[C@@H](c3ccsc3)N3CCC[C@@]123	3	-4.7	-1.5	-4.9	2	-10%	-0.2	20
CC(=O)NC(C1C(=O)CC(C)(C)CC1=O)(C(F)(F)F)C(F)(F)F	4	15	0.7	·	-17	2%	0.2	-2
Cc1ccc2nsnc2c1NC(=O)CCc1ccccc1	6	7.8	-0.2	13	-13	-9%	0.3	-26
Cc1cnc(C(=O)OCC(=O)Nc2ccc3c(c2)OCCO3)cn1	-10	1.2	·	-2.2	·	-6%	0.8	·
CCOc1ccc(S(=O)(=O)N2CCC(C(=O)NC3CC3)CC2)cc1Cl	·	6.5	0.1	-6.0	2	-4%	-0.6	-1
O=C(c1ccccc1F)N(NC(=O)C(O)(c1ccccc1)c1ccccc1)c1ccccc1	-7	0.8	-2.4	·	-6	15%	0.3	-5
CCOc1ccccc1N1CC(C(=O)N2CCN(Cc3ccc(C#N)cc3)CC2)CC1=O (stereo not given)	-11	·	·	-2.2	·	2%	1.0	·
COc1cc(/C=C(/NC(C)=O)C(=O)O)cc(Cl)c1OCc1ccc(Br)cc1	-3	-1.5	1.9	-7.0	-29	?	1.8	-6
Cc1cc(C(=O)Nc2ccccc2Cc2ccccc2)no1	-10	5.1	1.1	0.4	-3	-1%	0.4	-15
O=C(Cn1ncc(Cl)c(Cl)c1=O)NC1CCCCC1	-9	-1.9	·	1.5	·	·	-0.5	·
O=C(Nc1ccccc1N1CCCCC1)C1CCN(S(=O)(=O)c2cccc(C(F)(F)F)c2)CC1	10	1.1	1.3	-9.8	36	-8%	0.2	4
O=C(NCc1cccs1)c1cnc(Cl)c(Cl)c1	5	2.7	4.8	0.3	-7	9%	1.5	5
O=C1CN(C(=O)COC(=O)c2ccc(C(F)(F)F)cc2)c2ccccc2N1	0	1.8	·	-7.2	·	·	0.9	·
C/C(Cl)=C\C[N+](C)(C)CC(=O)OCCc1ccccc1	3	3.7	0.1	-1.6	-21	-8%	-0.5	-7
Nc1ccc(C2(c3ccc(N)cc3)c3ccccc3C(=O)c3ccccc32)cc1	-2	-2.7	4.7	1.4	8	·	-0.2	-1
New compounds follow:
SMILES	Beta cell apopt	LANA-H2B inh	RanGTP-Imp inh	MLL AF4-AF9 inh	T cruzi inh	Vif TR-FRET	Bfl-1 A1 inh	Calb FLC
CC1(CC(=O)Nc2ccccc2)NC(=S)N(c2ccccc2)N1 (stereo not given)	1	-1.7	3.2	-8.3	-5	-2%	-0.3	-21
CC(C)CC(=O)C1CCCN(C(=O)c2ccc3oc(Cc4ccccc4)nc3c2)C1 (stereo not given)	1	-3.6	-0.5	-4.0	10	·	-1.0	5
O=C(NNC(=O)c1cc(-c2ccccc2Cl)nc2ccccc12)c1csc(N2CCOCC2)n1	6	5.0	1.2	-0.9	-2	3%	0.0	65
COc1ccc(NC(=O)Cc2ccc(C)c(C)c2)cc1Cl	-11	-3.8	3.9	-0.1	-7	-9%	-5.9	-10
CCN1C(=O)CSc2ccc(C(=O)NCc3ccccc3)cc21	2	1.9	-4.0	-0.5	-1	1%	0.5	1
C/C(=N/NC(=O)c1cccc(Br)c1)C1CC2CCC1C2 (stereo not given)	-2	-1.2	-1.6	-1.2	-20	0%	-0.1	-5
O=C(c1ccc(Cl)cc1)c1ccc(OCC(O)CN2CCOCC2)cc1 (stereo not given)	0	4.4	4.8	·	18	4%	-0.1	-8
COC(=O)c1cccnc1-n1c(=O)c2cccnc2n(Cc2ccc(Cl)cc2)c1=O	3	0.2	1.3	·	7	18%	0.5	-7
COc1ccc(NC(=O)c2ccccc2-c2ccccc2)c(C)c1	-2	-0.3	-1.9	0.1	-3	6%	-0.4	-28
CN(CC(=O)Nc1cccc(F)c1)C(=O)c1ccc(-c2ccc(Cl)cc2)o1	·	-1.8	-2.2	1.0	15	0%	-0.5	-8
CCN(CC)C(=S)NC(=O)c1cccnc1	-3	5.5	-1.5	-9.5	-13	-3%	0.2	7
CCn1c(CSc2nc3ccccc3s2)nnc1SCC(N)=O	2	-2.5	-4.1	·	-3	-4%	-0.4	?
C=CCNc1nc(C(=O)OCC(=O)c2ccc(Cl)cc2)cs1	0	-3.4	3.1	-1.3	-9	1%	-0.1	0
COc1ccc(NC(=O)CSc2cn[nH]n2)c(OC)c1	1	34*	4.0	-3.7	-1	·	0.0	1
CN(Cc1ccccc1)C(=O)COC(=O)c1cc2ccccc2oc1=O	-6	-1.1	·	3.7	·	·	0.1	·
COc1ccc(C2CC(c3ccc(Cl)cc3Cl)Nc3nc(N)nn32)cc1 (stereo not given)	-9	1.2	1.7	5.5	52	8%	-0.1	8
CC1CC(C)(C)NC(=S)N1CC(=O)NCc1ccc(Cl)cc1 (stereo not given)	-1	0.3	1.3	0.2	-5	·	0.1	-1
Cc1ccc(CNC(=O)C2CC(c3ccccc3C(F)(F)F)=NO2)cc1 (stereo not given)	-10	2.1	-2.6	4.2	1	1%	1.0	-15
O=C(Cc1cccs1)Nc1ccc(S(=O)(=O)N2CCCCC2)cc1	3	-0.9	·	·	·	25%	0.5	·
O=C(Nc1cccc(OCC(=O)N2CCOCC2)c1)c1cccc(Cl)c1	-6	-4.5	2.5	-1.8	1	·	0.6	-5
COc1ccc(CCNC(=O)C(=O)NCc2ccccn2)cc1	-3	0.7	?	2.0	2	·	-1.1	-10
CC(=O)c1ccc(NC(=O)/C=C/c2ccc(C)cc2)cc1	-2	-8.4	5.8	·	-9	-9%	0.7	-2
c1ccc(CN2CCN(CCCNc3ccc4nnc(-c5ccccc5)n4n3)CC2)cc1	-3	3.0	3.6	·	30	64%	-0.4	-7
CCOc1ccc(Nc2cc(C)nc3ccc(C)cc23)cc1	35	0.6	-2.7	-0.1	51	·	1.6	0
CCOC(=O)c1ccc(N2C(=O)C3CCOc4ccccc4C32)cc1 (stereo not given)	-9	-3.7	·	-5.2	·	·	0.6	·
